RGS16-Gao – modulates binding between human RGS16 and Galphao | O15492+P09471 | binding response (% of control), % at 10 µM | 220,000 compounds, 0.38% hits | bead-based flow cytometry RGS16-Galphao binding, fluorescence; actives lie on both sides;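 active = below 25% or above 175%, edge rows of some plates excepted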;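 also: Galphao activated by GDP with aluminum fluoride before binding; 100% = wells without compound and 0% = beads without RGS; some results beyond the cut were filed as inactive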
Target sequence (O15492 whole entry, looked up): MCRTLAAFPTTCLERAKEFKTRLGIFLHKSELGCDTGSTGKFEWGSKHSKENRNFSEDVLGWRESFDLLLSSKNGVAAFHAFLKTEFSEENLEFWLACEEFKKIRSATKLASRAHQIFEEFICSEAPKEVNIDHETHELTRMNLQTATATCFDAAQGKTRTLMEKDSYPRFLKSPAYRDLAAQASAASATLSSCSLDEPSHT
Target sequence (P09471 whole entry, looked up): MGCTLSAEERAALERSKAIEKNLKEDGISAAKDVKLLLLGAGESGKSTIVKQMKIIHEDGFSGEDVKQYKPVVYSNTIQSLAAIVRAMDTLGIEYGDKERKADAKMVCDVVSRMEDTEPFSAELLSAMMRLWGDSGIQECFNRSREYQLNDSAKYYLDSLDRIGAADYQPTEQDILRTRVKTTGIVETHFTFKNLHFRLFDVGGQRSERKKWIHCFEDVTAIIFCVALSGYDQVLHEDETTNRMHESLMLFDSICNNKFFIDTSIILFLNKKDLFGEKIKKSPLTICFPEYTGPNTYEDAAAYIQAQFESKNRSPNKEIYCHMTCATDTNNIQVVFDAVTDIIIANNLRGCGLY
HSV replic up – HSV replication enhancement | HSV replication augmentation in cells, fold increase | maximum fold increase | 220,000 compounds, 0.005% hits | AID 1956;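 active = peak rise of 1.5-fold or more in the series; inconclusive = self-fluorescent or not available for retest; tested in PC3 cells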;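 also: first round at 10 µM; read as green reporter fluorescence; hits show the peak of a series up to 25 µM; 1 = signal of infected wells without compound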
PKD1 kinase inh – blocks activity of human protein kinase D1; Q15139; PKD1 kinase fluorescence polarization assay; inhibition, %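 (about 10 µM by stock and volumes)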; 200,000 compounds, 0.056% hits; AID 797;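 active = inhibition of 50% or more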;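 also: controls were vehicle for no effect and a reference inhibitor for full effect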
GALR2 agonist – GALR2 (human) receptor agonism; O43603; 140,000 compounds, 0.48% hits; activation, %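 (tested at 5 µM)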; GALR2-expressing cells, agonist activation read-out;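 active = above mean plus 3 SD of all compounds, about 5% in these data, not always enough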;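 also: 0% = vehicle buffer wells and 100% = reference agonist at full effect; tested in CHO reporter cells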
Target sequence (O43603 whole entry, looked up): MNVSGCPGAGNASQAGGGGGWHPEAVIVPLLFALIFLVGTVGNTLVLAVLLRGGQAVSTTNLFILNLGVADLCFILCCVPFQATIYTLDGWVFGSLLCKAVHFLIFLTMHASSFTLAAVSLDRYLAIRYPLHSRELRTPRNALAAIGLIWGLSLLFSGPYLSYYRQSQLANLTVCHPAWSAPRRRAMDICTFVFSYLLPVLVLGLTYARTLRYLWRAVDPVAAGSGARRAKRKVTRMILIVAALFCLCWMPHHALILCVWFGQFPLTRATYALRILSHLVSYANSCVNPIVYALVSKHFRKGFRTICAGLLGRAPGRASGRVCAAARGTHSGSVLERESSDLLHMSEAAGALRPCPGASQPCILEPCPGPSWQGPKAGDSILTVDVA
INS promoter inh – TRM-6 insulin promoter activity inhibition; TRM-6 cells (human fetal islet line), insulin promoter-eGFP reporter, imaging; reporter expression induced with tamoxifen; inhibition, % at 2 µM; 130,000 compounds, 0.9% hits; AID 1273;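 active = inhibition above the mean plus 3 SD, with well images judged a real hit on visual review, cut at about 60% in these data, passing the limit was not always enough; inconclusive = inhibition over the cutoff but images rejected on review; inactive = inhibition not above the cutoff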
INS promoter inh cell count – also measured in INS promoter inh; calls as there; normalized cell count, %; measured here: cell count, toxicity; reference of the scale not given here;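 cells exposed to compound for 48 h; stained nuclei by imaging scaled within each plate; lower means fewer cells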
HSV replic up primary fold – further read-out of HSV replic up, marked with its call; fold increase; compound at 10 µM; measured here: primary screen fold increase 10 uM; tested in PC3 cells;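 GFP signal in the first replicate; 1 = infected wells without compound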
Starred values were filed as active, the others as inactive; i = inactive; ? = inconclusive; . = no result given; [ ] = another dose, or the depositor's remark.

SMILES | RGS16-Gao | HSV replic up | HSV replic up primary fold | PKD1 kinase inh | GALR2 agonist | INS promoter inh | INS promoter inh cell count
CC(C)CNC(=O)C(=O)Nc1ccc(N(C)C)cc1 | 107 | i | 1 | 5 | -1.1 | 29 | 146
CN(Cc1cccs1)C(=O)COc1ccc(-c2nnco2)cc1 | 103 | i | 0.92 | 10 | -1.7 | . | .
O=C(CNS(=O)(=O)c1ccc2ccccc2c1)NCCc1ccccn1 | 104 | i | 1 | -13 | . | -117 | 93
c1ccc(CNc2ncnc3nc[nH]c23)cc1 | 110 | i | 0.88 | 3 | -1.1 | 22 | 151
CN1CCN(CC(=O)Nc2ccc(Oc3ccccc3)cc2)CC1 | 102 | i | 0.96 | -12 | -2.0 | 50 | 71
COC(=O)Cc1c(C)nc2nc(NCc3ccc(Cl)cc3)[nH]n2c1=O | 178*[activator] | . | . | 13 | -0.8 | . | .
CC(=O)OCC1=C(C(=O)O)N2C(=O)C(NC(=O)c3ccc(F)cc3)C2SC1 (centres undefined) | 102 | i | 0.91 | -5 | . | 8 | 166
COc1ccc(S(=O)(=O)NN(C)c2nc(C(F)(F)F)nc3ccccc23)cc1 | 101 | . | . | -3 | . | 0 | 91
O=C1N[C@@H](Cc2cnc[nH]2)C(=O)N2CCC[C@@H]12 | 101 | i | 0.99 | 5 | -0.7 | -71 | 110
O=C(CN1CCN(Cc2ccccc2Cl)C1=O)NCCCN1CCOCC1 | 94 | i | 1 | . | . | . | .
O=C(NCc1ccco1)c1ccc2c(=O)n(-c3ccccc3)c(=O)n(Cc3cccc(F)c3)c2c1 | . | . | . | -17 | -0.7 | -48 | 103
Cc1nnc(NC(=O)CSc2nnc(C)n2-c2ccc(F)cc2)s1 | 115 | i | 0.94 | -5 | . | 27 | 119
O=C(O)c1ccc(C(=O)c2ccc3c(c2)C(=O)N(CCO)C3=O)cc1 | 102 | i | 0.85 | . | . | . | .
CN(CCCNC(=O)c1cccn2c(=O)c3ccccc3nc12)Cc1ccccc1 | 101 | i | 1 | 31 | -1.9 | . | .
COc1ccccc1N1CCN(C(=O)Cn2nc3n(C)c4ccccc4n3c(=O)c2=O)CC1 | 59 | i | 0.89 | -1 | . | 25 | 87
CNCC(=O)Nc1c(C)n[nH]c1C | 86 | i | 0.99 | -6 | 2.7 | -45 | 85
CCOc1ccc(-c2nnc3ccc(SC(C)C)nn23)cc1 | 110 | . | . | -3 | . | . | .
CCCN1C(=O)CC(Sc2ncccc2C(=O)O)C1=O (centres undefined) | 106 | i | 1 | . | . | . | .
Cc1nnc(SCc2nc3sc(C(=O)O)c(C)c3c(=O)[nH]2)s1 | 102 | i | 0.93 | . | . | . | .
COc1ccccc1CNC(=O)c1ccc(-c2ccccc2)cc1 | 98 | i | 1 | 3 | -0.6 | . | .
O=C(NCc1ccccc1)c1ccccc1C(=O)c1ncc[nH]1 | 98 | i | 0.96 | 1 | . | . | .
COc1ccc(CCn2nnnc2C(CC(C)C)N2CCC(C(N)=O)CC2)cc1OC (centres undefined) | 404 | i | 0.9 | -4 | -1.2 | . | .
C=C(C)C(=O)Nc1cccc(C2=NOC3(C2)C[C@@H](C(N)=O)N(C(=O)c2cc([N+](=O)[O-])cc([N+](=O)[O-])c2)C3)c1 (some centres undefined) | 99 | i | 1.1 | . | . | . | .
N=c1ccn(CC(=O)NC(N)=O)c2ccccc12 | 98 | i | 1.2 | 5 | 1.1 | -5 | 115
Cc1cccc(Cn2cccc2/C=C2/C(=N)N3C=CSC3=NC2=O)c1 | 106 | i | 0.92 | -14 | -1.8 | 12 | 95
(further entries)
SMILES | RGS16-Gao | HSV replic up | HSV replic up primary fold | PKD1 kinase inh | GALR2 agonist | INS promoter inh | INS promoter inh cell count
CCOC(=O)N1CCN(C(=O)CS(=O)(=O)c2cn(Cc3ccc(F)cc3)c3ccccc23)CC1 | 108 | i | 0.84 | . | . | . | .
COc1cccc(N2CC(O)=C(c3ccccc3)C2=N)c1 | 78 | . | . | -7 | -2.9 | -18 | 101
Cc1cccc(CCNC(=O)CCNC(=O)Cn2ccc3ccccc3c2=O)c1 | 91 | i | 1 | -6 | -2.1 | 7 | 62
CCNC(=S)N1CCC(NC(=O)c2ccco2)CC1 | 93 | i | 0.97 | 0 | . | 48 | 114
CC1=C(C(=O)OCCOC(C)C)C(c2cc3c(cc2Br)OCO3)CC(=O)N1 (centres undefined) | 96 | i | 0.98 | -1 | -0.8 | -100 | 132
COC(=O)c1[nH]c2ccc(Cl)cc2c1NC(=O)C1CC1 | 113 | . | . | 6 | -2.0 | . | .
O=C(Nc1ccc(S(=O)(=O)Nc2nccs2)cc1)c1ccc(S(=O)(=O)N2CCOCC2)cc1 | 104 | i | 0.92 | -1 | -2.1 | -21 | 98
CSc1nncc(/C(C)=N/O)n1 | 93 | i | 1 | 0 | -1.6 | 26 | 58
CCCCNC(=O)Nc1ccc(Br)cn1 | 105 | i | 0.97 | -8 | -0.7 | . | .
Cc1ccc(C)c(NC(=S)N=Nc2c(O)n(C)c3ccc(S(=O)(=O)N4CCOCC4)cc23)c1 | 98 | i | 1 | 6 | -2.8 | 41 | 70
C=CCn1c(CCc2ccc(OC(C)C)cc2)n[nH]c1=S | 100 | i | 0.97 | -2 | . | 0 | 117
Cc1ccc(NC(=O)Cn2cnc3sc(C(=O)NCc4ccco4)c(C)c3c2=O)cc1Cl | 98 | i | 0.98 | 3 | 0.3 | . | .
O=C(CC1C(=O)OCN1C(=O)OCc1ccccc1)OCC(=O)c1ccccc1 (centres undefined) | 101 | i | 1.1 | 1 | -1.0 | . | .
COCc1c(C(=O)N2CCN(c3ccc(C(F)(F)F)cn3)CC2)oc2ccccc12 | 102 | i | 0.88 | -9 | -1.0 | 62 | 126
CCC(C)(C)NC(=O)c1ccc(S(=O)(=O)N(C)c2ccccc2OC)cc1 | 104 | i | 0.92 | 15 | -3.4 | 42 | 98
Nc1c(C(=O)NCCN2CCOCC2)c2nc3ccccc3nc2n1CCc1ccccc1 | 105 | i | 0.87 | -14 | 8.6* | . | .
CC(C)c1nc2oc3c(=O)[nH]cnc3c2c2c1CCC2 | 99 | i | 0.92 | 2 | -0.8 | 54 | 133
CCOC(=O)c1cnc2ccc(C)cc2c1NCCO | 109 | i | 0.87 | -7 | -0.4 | -200 | 99
Cc1ccc([N+](=O)[O-])c(OCC(=O)OCC(=O)c2ccccc2)c1 | 106 | i | 0.9 | 4 | -0.2 | . | .
O=C(c1cc(-c2ccncc2)nc2ccc(Cl)cc12)N1CCN(Cc2ccc3c(c2)OCO3)CC1 | 101 | i | 0.78 | -3 | . | . | .
Nc1nc(-c2ccccc2)nn1C(=O)c1ccco1 | 100 | i | 0.95 | -2 | . | -30 | 156
COc1ccc(Cl)cc1NC(=O)CCN1CCN(C)CC1 | 104 | i | 1 | -7 | -0.4 | -19 | 66
FC(F)(F)c1cccc(-c2ccc(/C=N/Nc3nncc(-c4ccccc4)n3)o2)c1 | 97 | i | 0.87 | -2 | . | 56 | 115
Cc1cccc(C(=O)NNC(=O)c2cccc(C)c2)c1 | 97 | . | . | -6 | -0.9 | 42 | 96
CCC(=O)N1N=C(c2ccc(NS(=O)(=O)CC)cc2)CC1c1ccc(C)cc1 (centres undefined) | 94 | i | 1 | -1 | . | . | .

3 entries from above, set out differently:
smiles	RGS16-Gao	HSV replic up	HSV replic up primary fold	PKD1 kinase inh	GALR2 agonist	INS promoter inh	INS promoter inh cell count
CCCCNC(=O)Nc1ccc(Br)cn1	105	i	0.97	-8	-0.7	.	.
Cc1ccc(C)c(NC(=S)N=Nc2c(O)n(C)c3ccc(S(=O)(=O)N4CCOCC4)cc23)c1	98	i	1	6	-2.8	41	70
C=CCn1c(CCc2ccc(OC(C)C)cc2)n[nH]c1=S	100	i	0.97	-2	.	0	117

Quoted at random: 3 compounds from above.
SMILES | RGS16-Gao | HSV replic up | HSV replic up primary fold | PKD1 kinase inh | GALR2 agonist | INS promoter inh | INS promoter inh cell count
Nc1c(C(=O)NCCN2CCOCC2)c2nc3ccccc3nc2n1CCc1ccccc1 | 105 | i | 0.87 | -14 | 8.6* | . | .
FC(F)(F)c1cccc(-c2ccc(/C=N/Nc3nncc(-c4ccccc4)n3)o2)c1 | 97 | i | 0.87 | -2 | . | 56 | 115
Cc1nnc(NC(=O)CSc2nnc(C)n2-c2ccc(F)cc2)s1 | 115 | i | 0.94 | -5 | . | 27 | 119

The listing continues.
SMILES | RGS16-Gao | HSV replic up | HSV replic up primary fold | PKD1 kinase inh | GALR2 agonist | INS promoter inh | INS promoter inh cell count
CCC(=O)N1CC23C=CC(CC2CC12CCCCC2)O3 (centres undefined) | 103 | i | 1 | -7 | -1.7 | . | .
O=C(CN(c1ccccc1)S(=O)(=O)c1ccccc1)NCCSc1ccccn1 | 96 | i | 0.94 | -5 | . | . | .
Cn1c(SCc2nnc(-c3ccccc3Br)o2)nc2sc3c(c2c1=O)CCC3 | 99 | i | 0.92 | 1 | -0.2 | 9 | 95
CCN1CCN(Cc2ccc(NC(=O)c3cc(NC(=O)c4cc5cccc(OC)c5o4)cc(OC)c3)cc2C(F)(F)F)CC1 | 98 | i | 0.54 | . | . | . | .
O=c1cc(-c2ccccc2)[nH]n1-c1ccc([N+](=O)[O-])cc1 | 96 | i | 0.82 | -7 | -1.4 | -13 | 70
COc1ccc(CN=Cc2c(C(=O)O)[nH]c3ccccc23)cc1 | 108 | i | 1.3 | 2 | . | . | .
Cc1nnc(NC(=O)CSc2ccc([N+](=O)[O-])cn2)s1 | 100 | i | 0.86 | -5 | . | . | .
COc1ccc(S(=O)(=O)N2CCOCC2)cc1N=Nc1sc(N)nc1-c1ccccc1 | 70 | i | 0.77 | 1 | 0.6 | . | .
Oc1ccc(-c2nc3ccccc3s2)c(O)c1 | 100 | ? | . | . | . | . | .
Cc1ccc(NC2=NC(c3ccc(F)cc3)n3c(nc(C)cc3=O)N2)c(C)c1 (centres undefined) | 71 | i | 0.93 | . | . | . | .
CC(NC(=O)c1ccco1)C(=O)OCc1cccc(Cl)c1 (centres undefined) | 105 | i | 0.83 | -10 | 0.7 | . | .
COC(=O)c1c(NC(=O)CSc2nnnn2-c2ccc3c(c2)OCO3)sc(C)c1C | 103 | i | 0.89 | -7 | -2.7 | 28 | 104
COc1ccc(NC(=O)C(C)N2C(=O)c3ccccc3C2=O)cc1S(=O)(=O)N1CCOCC1 (centres undefined) | 98 | i | 1 | 3 | . | 0 | 115
O=C1/C(=C/c2cccc(Br)c2)SC(=S)N1/N=C/c1cc([N+](=O)[O-])ccc1O | 102 | i | 1 | . | . | . | .
O=C(c1c(F)cccc1F)N(Cc1ccccn1)C1CC1 | 96 | i | 1 | -6 | -2.1 | 21 | 101
Cc1cc(N(C)C)cc(C)[n+]1[O-] | 94 | i | 0.93 | -12 | -3.6 | . | .
CC(=O)Nc1cc(NC(=O)CCCC(=O)O)ccc1Cl | 93 | i | 0.9 | 2 | 0.0 | -57 | 146
O=C(O)C1CCCCC1C(=O)Nc1cc(C(F)(F)F)ccc1Cl (centres undefined) | 114 | i | 0.9 | 1 | . | -33 | 89
COc1ccc(C(=O)N2CCNC(=O)C2CC(=O)Nc2ccc(C)cc2)cc1 (centres undefined) | 99 | i | 0.86 | -2 | . | . | .
CC(C)CCOc1cccc(OCC(=O)N(C)C2CCS(=O)(=O)C2)c1 (centres undefined) | 101 | i | 1.2 | 2 | -2.9 | 11 | 87
O=C(O)C1CCCCC1C(=O)NCCc1c[nH]c2ccccc12 (centres undefined) | 100 | i | 0.97 | -11 | -0.8 | 44 | 123
CNC(=O)c1cc(S(=O)(=O)N(C)C)ccc1Cl | 99 | i | 1 | 1 | -4.0 | 30 | 135

One compound at a time, as listed above:
Profile of COc1ccc(CN=Cc2c(C(=O)O)[nH]c3ccccc23)cc1 = RGS16-Gao = 108; HSV replic up = i; HSV replic up primary fold = 1.3; PKD1 kinase inh = 2; GALR2 agonist = .; INS promoter inh = .; INS promoter inh cell count = .
Profile of CNC(=O)c1cc(S(=O)(=O)N(C)C)ccc1Cl = RGS16-Gao = 99; HSV replic up = i; HSV replic up primary fold = 1; PKD1 kinase inh = 1; GALR2 agonist = -4.0; INS promoter inh = 30; INS promoter inh cell count = 135
Profile of CCC(=O)N1CC23C=CC(CC2CC12CCCCC2)O3 (centres undefined) = RGS16-Gao = 103; HSV replic up = i; HSV replic up primary fold = 1; PKD1 kinase inh = -7; GALR2 agonist = -1.7; INS promoter inh = .; INS promoter inh cell count = .

Assay outcomes as filed in PubChem.
